Bioassay records deposited in PubChem by Broad Institute.
Env fusion inh – HIV envelope-mediated fusion inhibition | HeLa-JRFL Env/CEM21 cell fusion, luciferase | inhibition, % at 12.3 µM | actives 1.1% (n = 360,000) | AID 651610;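 active = mean replicate inhibition score of at least 50 and every replicate individually at or above 50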;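 note: 0% = plate neutral controls and 100% = maraviroc near 300 nM; one replicate is shown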
UUG fidelity – yeast start codon fidelity modulation | S. cerevisiae UUG-firefly luciferase reporter, luminescence/redox ratio | activity score, % at 18.7 µM | actives 0.13% (n = 350,000);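 active = replicate mean at a twofold rise or more, about +100% in these data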;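 note: firefly luciferase made from a UUG start codon reports start codon fidelity; reporter light over untreated wells divided by growth signal over untreated wells; some hits fall short of that in this replicate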
Numbers without * were called inactive; [ ] = remark or other dose. An excerpt; the hit share may differ from the screen's.

| # | molecule | Env fusion inh | UUG fidelity |
| --- | --- | --- | --- |
| 1 | C[C@H](CO)N1C[C@H](C)[C@@H](CN(C)C(=O)NC2CCCCC2)OCCCC[C@H](C)Oc2ccc(NS(=O)(=O)c3ccc(Cl)cc3)cc2C1=O | -154[16.7 µM] | 5 |
| 2 | C[C@H](CO)N1C[C@H](C)[C@H](CN(C)Cc2ccc(C(=O)O)cc2)Oc2c(NC(=O)c3nc4ccccc4s3)cccc2C1=O | 2[16.7 µM] | -6 |
| 3 | O=C(C[C@@H]1CC[C@@H](NC(=O)C2CC2)[C@@H](CO)O1)NCc1ccccc1Cl | 17[16.7 µM] | 1 |
| 4 | C[C@H](CO)N1C[C@H](C)[C@H](CN(C)C(=O)Cc2cccnc2)Oc2ncc(C3=CCCCC3)cc2C1=O | 8[16.7 µM] | -9 |
| 5 | C[C@H](CO)N1C[C@H](C)[C@@H](CN(C)Cc2ccncc2)Oc2ccc(N(C)C)cc2CC1=O | 14[16.7 µM] | -3 |
| 6 | C[C@H](CO)N1C[C@H](C)[C@@H](CN(C)CC2CC2)Oc2ccc(N(C)C)cc2CC1=O | 0[16.7 µM] | 0 |
| 7 | CC(C)NC(=O)Nc1ccc2c(c1)C(=O)N([C@H](C)CO)C[C@@H](C)[C@H](CN(C)C(=O)Nc1ccc3c(c1)OCO3)OCCCC[C@@H](C)O2 | 10[16.7 µM] | -3 |
| 8 | COCC(=O)N(C)C[C@H]1Oc2ncc(C#Cc3ccc(OC)cc3)cc2C(=O)N([C@@H](C)CO)C[C@H]1C | 10[16.7 µM] | 17 |
| 9 | O=C(C[C@H]1C[C@@H]2c3cc(NC(=O)C4CCC4)ccc3O[C@@H]2[C@@H](CO)O1)NCc1cccnc1 | 7[16.7 µM] | -17 |
| 10 | COCC(=O)N(C)C[C@@H]1Oc2cc(-c3cccc(F)c3)ccc2S(=O)(=O)N([C@@H](C)CO)C[C@@H]1C | -2[16.7 µM] | 18 |
| 11 | CN1CCN(C(=O)C[C@@H]2CC[C@@H]3[C@H](COc4ccc(NC(=O)c5ccc(F)c(F)c5)cc4C(=O)N3C)O2)CC1 | 23[16.7 µM] | -4 |
| 12 | COCC#Cc1ccc2c(c1)O[C@@H](CN(C)S(=O)(=O)c1ccc(C)cc1)[C@H](C)CN([C@@H](C)CO)S2(=O)=O | 24[16.7 µM] | 12 |
| 13 | CCC(=O)N[C@@H]1C=C[C@H](CC(=O)NCc2ccc(OC)cc2)O[C@H]1CO | -8[16.7 µM] | -10 |
| 14 | COc1ccc(S(=O)(=O)N[C@@H]2C=C[C@@H](CC(=O)O)O[C@H]2CO)cc1 | -19[16.7 µM] | -25 |
| 15 | C[C@@H]1CN([C@H](C)CO)C(=O)c2cc(C3=CCCC3)cnc2O[C@H]1CN(C)C(=O)c1ccncc1 | 11[16.7 µM] | -6 |
| 16 | CCC(=O)N(C)C[C@H]1Oc2cc(-c3cncnc3)ccc2S(=O)(=O)N([C@@H](C)CO)C[C@H]1C | -15[16.7 µM] | 4 |
| 17 | CCCC(=O)Nc1ccc2c(c1)C(=O)N(C)C[C@H](OC)[C@H](C)CN(Cc1ccccc1)[C@H](C)CO2 | 0[16.7 µM] | 4 |
| 18 | C[C@H]1CN([C@@H](C)CO)C(=O)c2cc(N(C)C)ccc2O[C@@H]1CN(C)Cc1ccc(Cl)c(Cl)c1 | 47[16.7 µM] | 9 |
| 19 | C[C@@H]1CCCCO[C@H](CN(C)C(=O)NC2CCCCC2)[C@@H](C)CN([C@H](C)CO)C(=O)c2cc(NC(=O)Nc3cccc4ccccc34)ccc2O1 | -2[16.7 µM] | -4 |
| 20 | CN(C)CC(=O)Nc1ccc2c(c1)[C@H]1C[C@H](CC(=O)NCc3cccc(F)c3)O[C@@H](CO)[C@H]1O2 | 64*[16.7 µM] | 12 |
| 21 | O=C(C[C@@H]1C[C@H]2c3cc(NC(=O)NC4CCCCC4)ccc3O[C@H]2[C@@H](CO)O1)NCc1ccccn1 | -2[16.7 µM] | -22 |
| 22 | CN(C)CCCNC(=O)C[C@@H]1CC[C@H]2[C@@H](COc3ccc(NC(=O)c4cccc(F)c4)cc3C(=O)N2C)O1 | 5[16.7 µM] | -13 |
| 23 | COc1ccc(S(=O)(=O)Nc2cccc3c2O[C@@H](CN(C)Cc2ccc(C(F)(F)F)cc2)[C@@H](C)CN([C@@H](C)CO)C3=O)cc1 | -45[16.7 µM] | -2 |
| 24 | O=C(C[C@@H]1C[C@@H]2c3cc(NC(=O)C4CCOCC4)ccc3O[C@@H]2[C@H](CO)O1)NCc1ccccc1F | 71*[16.7 µM] | -11 |
| 25 | C[C@H](CO)N1C[C@H](C)[C@H](CN(C)C(=O)Cc2ccccn2)Oc2ncc(C#CC3CCCC3)cc2C1=O | -12[16.7 µM] | 13 |
| 26 | C[C@H](CO)N1C[C@H](C)[C@@H](CN(C)Cc2ccc(C(=O)O)cc2)OCCCC[C@H](C)Oc2ccc(NS(=O)(=O)c3cccs3)cc2C1=O | -20[16.7 µM] | 12 |
| 27 | C[C@@H]1CN([C@H](C)CO)C(=O)c2cc(-c3cccc(F)c3)cnc2O[C@H]1CN(C)C(=O)Nc1ccccc1F | -17[16.7 µM] | -6 |
| 28 | Cc1cc(C(=O)Nc2cccc3c2O[C@H](CN(C)S(=O)(=O)c2ccc(F)cc2)[C@H](C)CN([C@H](C)CO)C3=O)n(C)n1 | 4[16.7 µM] | 5 |
| 29 | C[C@@H]1CCCCO[C@H](CN(C)S(=O)(=O)c2ccc(F)cc2)[C@@H](C)CN([C@H](C)CO)C(=O)c2cc(NC(=O)CCCN(C)C)ccc2O1 | 3[16.7 µM] | 22 |
| 30 | C/C=C/c1ccc2c(c1)O[C@@H](CN(C)C(=O)Cc1ccccc1)[C@H](C)CN([C@H](C)CO)S2(=O)=O | 9[16.7 µM] | 14 |

Entries of single compounds, quoted from the list:
`C[C@@H]1CN([C@H](C)CO)C(=O)c2cc(-c3cccc(F)c3)cnc2O[C@H]1CN(C)C(=O)Nc1ccccc1F` in the list: Env fusion inh: -17[16.7 µM]; UUG fidelity: -6
`C[C@H](CO)N1C[C@H](C)[C@@H](CN(C)CC2CC2)Oc2ccc(N(C)C)cc2CC1=O` in the list: Env fusion inh: 0[16.7 µM]; UUG fidelity: 0

Following part
| # | molecule | Env fusion inh | UUG fidelity |
| --- | --- | --- | --- |
| 31 | CC(C)c1cn(CC[C@@H]2CC[C@@H](NS(=O)(=O)c3ccc(Cl)cc3)[C@H](CO)O2)nn1 | -13[16.7 µM] | -1 |
| 32 | C[C@@H]1CN([C@@H](C)CO)C(=O)c2cc(NS(=O)(=O)c3ccc(Cl)cc3)ccc2O[C@@H]1CN(C)S(=O)(=O)c1ccc(F)cc1 | -23[16.7 µM] | 6 |
| 33 | C[C@@H]1CN([C@@H](C)CO)C(=O)c2cc(NS(=O)(=O)c3ccc(F)cc3)ccc2O[C@@H]1CN(C)C(=O)Nc1ccc(F)cc1 | -14[16.7 µM] | 5 |
| 34 | C[C@@H]1CN([C@H](C)CO)C(=O)Cc2cc(NC(=O)Cn3cnnn3)ccc2O[C@@H]1CN(C)C(=O)Nc1ccc(C(F)(F)F)cc1 | 0[16.7 µM] | -4 |
| 35 | C[C@@H]1CN([C@H](C)CO)C(=O)c2cccc(NC(=O)C3CCCCC3)c2O[C@@H]1CN(C)C | 3[16.7 µM] | 5 |
| 36 | CCCNC(=O)C[C@@H]1C[C@@H]2c3cc(NC(=O)C4CCOCC4)ccc3O[C@@H]2[C@H](CO)O1 | 20[16.7 µM] | -18 |
| 37 | C[C@@H]1CN([C@H](C)CO)C(=O)c2cc(NS(=O)(=O)c3ccc(Cl)cc3)ccc2O[C@@H](C)CCCCO[C@H]1CN(C)C(=O)Nc1ccc(F)cc1 | -217[16.7 µM] | -6 |
| 38 | C[C@@H]1CCCCO[C@@H](CN(C)S(=O)(=O)c2ccc(Cl)cc2)[C@H](C)CN([C@@H](C)CO)C(=O)c2cc(NC(=O)c3ccccc3)ccc2O1 | 7[16.7 µM] | -8 |
| 39 | CCC(=O)N1C[C@H](C)[C@H](OC)CN(C)C(=O)c2ccc(NS(C)(=O)=O)cc2OC[C@H]1C | -7[16.7 µM] | 0 |
| 40 | COc1ccc(C#Cc2ccc3c(c2)O[C@@H](CN(C)C)[C@H](C)CN([C@@H](C)CO)S3(=O)=O)cc1 | 33[16.7 µM] | -2 |
| 41 | COc1cccc(S(=O)(=O)N[C@H]2CC[C@@H](CCNC(=O)Nc3cc(F)ccc3F)O[C@@H]2CO)c1 | 19[16.7 µM] | 7 |
| 42 | Cc1ccc(S(=O)(=O)Nc2ccc3c(c2)C(=O)N([C@@H](C)CO)C[C@@H](C)[C@@H](CN(C)C(=O)CCC(F)(F)F)OCCCC[C@@H](C)O3)cc1 | 14[16.7 µM] | 10 |
| 43 | CN(C)C(=O)c1ccc(-c2ccc([C@@H]3[C@@H](CO)N(C(=O)Cc4ccccn4)[C@H]3C#N)cc2)cc1 | -21[16.7 µM] | -2 |
| 44 | CCC(=O)N(C)C[C@H]1Oc2ncc(C#CC3(O)CCCC3)cc2C(=O)N([C@@H](C)CO)C[C@H]1C | -6[16.7 µM] | 3 |
| 45 | COc1ccc(NC(=O)Nc2ccc3c(c2)C(=O)N([C@@H](C)CO)C[C@H](C)[C@@H](CN(C)Cc2ccncc2)OCCCC[C@H](C)O3)cc1 | 3[16.7 µM] | 4 |

A different layout for part of the listing above.
Values in the order: Env fusion inh	UUG fidelity
(31) CC(C)c1cn(CC[C@@H]2CC[C@@H](NS(=O)(=O)c3ccc(Cl)cc3)[C@H](CO)O2)nn1
 : -13[16.7 µM]	-1
(32) C[C@@H]1CN([C@@H](C)CO)C(=O)c2cc(NS(=O)(=O)c3ccc(Cl)cc3)ccc2O[C@@H]1CN(C)S(=O)(=O)c1ccc(F)cc1
 : -23[16.7 µM]	6
(33) C[C@@H]1CN([C@@H](C)CO)C(=O)c2cc(NS(=O)(=O)c3ccc(F)cc3)ccc2O[C@@H]1CN(C)C(=O)Nc1ccc(F)cc1
 : -14[16.7 µM]	5
(34) C[C@@H]1CN([C@H](C)CO)C(=O)Cc2cc(NC(=O)Cn3cnnn3)ccc2O[C@@H]1CN(C)C(=O)Nc1ccc(C(F)(F)F)cc1
 : 0[16.7 µM]	-4
(35) C[C@@H]1CN([C@H](C)CO)C(=O)c2cccc(NC(=O)C3CCCCC3)c2O[C@@H]1CN(C)C
 : 3[16.7 µM]	5
(36) CCCNC(=O)C[C@@H]1C[C@@H]2c3cc(NC(=O)C4CCOCC4)ccc3O[C@@H]2[C@H](CO)O1
 : 20[16.7 µM]	-18
(37) C[C@@H]1CN([C@H](C)CO)C(=O)c2cc(NS(=O)(=O)c3ccc(Cl)cc3)ccc2O[C@@H](C)CCCCO[C@H]1CN(C)C(=O)Nc1ccc(F)cc1
 : -217[16.7 µM]	-6
(38) C[C@@H]1CCCCO[C@@H](CN(C)S(=O)(=O)c2ccc(Cl)cc2)[C@H](C)CN([C@@H](C)CO)C(=O)c2cc(NC(=O)c3ccccc3)ccc2O1
 : 7[16.7 µM]	-8

(cont.)
| # | molecule | Env fusion inh | UUG fidelity |
| --- | --- | --- | --- |
| 46 | C[C@H](CO)N1C[C@H](C)[C@H](CN(C)S(=O)(=O)c2cn(C)cn2)OCCCC[C@H](C)Oc2ccc(NC(=O)NC3CCCCC3)cc2C1=O | -2[16.7 µM] | -25 |
| 47 | C[C@H](CO)N1C[C@H](C)[C@@H](CN(C)Cc2cccc(C(=O)O)c2)Oc2cc(C3=CCCC3)ccc2S1(=O)=O | -31[16.7 µM] | 18 |
| 48 | Cc1cc(C(=O)Nc2cccc3c2O[C@H](CN(C)Cc2ccc(C(F)(F)F)cc2)[C@@H](C)CN([C@H](C)CO)C3=O)n(C)n1 | 5[16.7 µM] | 21 |
| 49 | Cc1noc(C)c1S(=O)(=O)N(C)C[C@@H]1Oc2ccc(NS(=O)(=O)c3cccs3)cc2CC(=O)N([C@H](C)CO)C[C@@H]1C | 19[16.7 µM] | 8 |
| 50 | Cc1ccccc1S(=O)(=O)N[C@H]1CC[C@@H](CCn2cc(-c3ccc(F)cc3)nn2)O[C@@H]1CO | 11[16.7 µM] | 11 |
| 51 | COc1ccc(NC(=O)N(C)C[C@@H]2Oc3ccc(NC(=O)c4ccncc4)cc3CC(=O)N([C@@H](C)CO)C[C@H]2C)cc1 | -15[16.7 µM] | -7 |
| 52 | Cc1noc(C)c1S(=O)(=O)N(C)C[C@H]1OCCCC[C@H](C)Oc2ccc(NC(=O)CCCN(C)C)cc2C(=O)N([C@H](C)CO)C[C@H]1C | -9[16.7 µM] | 6 |
| 53 | Cc1noc(C)c1NC(=O)Nc1ccc2c(c1)C(=O)N([C@H](C)CO)C[C@@H](C)[C@H](CN(C)S(=O)(=O)c1ccccc1)OCCCC[C@@H](C)O2 | 5[16.7 µM] | -4 |
| 54 | Cc1ccc(S(=O)(=O)N(C)C[C@H]2Oc3c(NS(C)(=O)=O)cccc3C(=O)N([C@H](C)CO)C[C@H]2C)cc1 | -15[16.7 µM] | -3 |
| 55 | CCCC#Cc1ccc2c(c1)O[C@H](CN(C)C(=O)COC)[C@H](C)CN([C@@H](C)CO)S2(=O)=O | 0[16.7 µM] | -3 |
| 56 | C[C@H](CO)N1C[C@H](C)[C@H](CN(C)C(=O)Nc2cccc3ccccc23)Oc2c(NC(=O)C3CC3)cccc2C1=O | -25[16.7 µM] | 2 |
| 57 | CCCNC(=O)C[C@@H]1CC[C@@H]2[C@H](COc3ccc(NC(=O)c4cc(C)on4)cc3C(=O)N2C)O1 | 8[16.7 µM] | 27 |
| 58 | O=C(N[C@@H]1CC[C@@H](CCn2cc(-c3ccccn3)nn2)O[C@H]1CO)c1ccc(F)cc1 | -36[16.7 µM] | -30 |
| 59 | C[C@@H]1CN([C@H](C)CO)C(=O)c2cc(NC(=O)Cn3cnnn3)ccc2O[C@H]1CN(C)Cc1ccc(-c2ccccc2)cc1 | 8[16.7 µM] | 2 |
| 60 | Cc1ccc(S(=O)(=O)N(C)C[C@@H]2Oc3ccc(NC(=O)C4CCCCC4)cc3C(=O)N([C@H](C)CO)C[C@@H]2C)cc1 | 29[16.7 µM] | 3 |
